Source: PubChem BioAssay (several laboratories)
Calb FLC: affects C. albicans growth with fluconazole. C. albicans CaCi-2 (fluconazole-resistant clinical isolate) + fluconazole, Alamar Blue growth, 48 h. growth inhibition, % (no concentration beside the values). actives 0.57% (n = 300,000);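 active means most replicates above 75%; inconclusive means exactly half above 75%; inactive means most below 75%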;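 further: all wells also contain fluconazole at 8 µg/ml as a sub-toxic cotreatment; 0% = median of DMSO wells and 100% = median of geldanamycin control wells; wells of about 8 µL received 7.5 nL stock; the first replicate is given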
UCH37 inh: inhibitors of human deubiquitinating enzyme UCH37; actives 0.33% (n = 330,000); inhibition, % (no concentration beside the values); Q9Y5K5; purified proteasome/UCH37, Ub-AMC cleavage fluorescence;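 active means mean of two replicates above 20%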;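 further: 0% = compound-free wells with enzyme and 100% = wells lacking proteasome; stock transfer was 100 nL into about 20 µL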
Target sequence (Q9Y5K5 whole entry, looked up): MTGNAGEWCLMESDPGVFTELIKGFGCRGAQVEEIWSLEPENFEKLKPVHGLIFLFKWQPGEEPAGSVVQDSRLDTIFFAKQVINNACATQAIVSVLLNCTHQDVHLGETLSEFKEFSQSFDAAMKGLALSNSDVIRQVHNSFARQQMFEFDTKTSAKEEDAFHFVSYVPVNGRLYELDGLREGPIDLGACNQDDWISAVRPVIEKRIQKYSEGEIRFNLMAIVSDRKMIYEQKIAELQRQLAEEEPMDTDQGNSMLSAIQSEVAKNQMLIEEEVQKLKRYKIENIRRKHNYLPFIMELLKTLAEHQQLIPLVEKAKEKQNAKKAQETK
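System: Proteasome-associated human UCH37 deubiquitinase; Input: 0.15 nM proteasome in added enzyme buffer; Also added: Ub-AMC substrate from 1 µM stock; Incubation: 30 min compound-proteasome preincubation then 25 min substrate reaction, room temperature; Detection: fluorescence, ex 355 nm, em 460 nm; Read-out: % inhibition of Ub-AMC cleavage fluorescence; Benchmarks: no-proteasome and no-compound wells.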
A1 inh: inhibitors of the anti-apoptotic protein A1, read as caspase activation; MEF A1-2A-BIM cells, Caspase-Glo 3/7 luminescence, 3 h; percent of clofoctol response, vehicle zero; caspase activation, % (no concentration beside the values); AID 2462; actives 0.066% (n = 330,000);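 active means over half of replicate activation scores above 10%, or exactly half above 10 with the replicate mean above 10; inconclusive means replicate mean below 10 yet half the replicates above 10; inactive means over half of replicates below 10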;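 further: wells of about 30 µL received 50 nL stock; many hits fall short of the cut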
T cruzi repl: blocks replication of Trypanosoma cruzi | T. cruzi beta-gal in NIH3T3, luminescence, 90 h | actives 1.4% (n = 300,000) | inhibition, % (no concentration beside the values);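 active means mean inhibition across valid replicates above about 55%, limit read from the data; inconclusive means mean below that limit but half or more replicates reach it; inactive means mean below it, under half of replicates reach it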;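 further: signal also drops with host cell toxicity which is not excluded here; 0% = plate median of DMSO wells and 100% = zero luminescence signal; higher percent means less beta-gal luminescence so fewer parasites; stock transfer was 50 nL into about 50 µL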
LANA-H2B inh: blocks KSHV LANA binding to histone H2A/H2B; actives 0.6% (n = 320,000); Q9QR71; inhibition, % (concentration not given with the values); cell-free LANA-H2A/H2B peptide, fluorescence polarization; AID 2629; in the data active means inhibition mostly above about 10%, no sharp cut-off; inactive means mostly below about 6.7%;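 further: stock transfer was 7.5 nL into about 10 µL; 0% = median of vehicle wells and 100% = median of positive control wells; one replicate is shown; the record names a cut of 25% in any replicate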
B2AR ag: agonists of human beta-2 adrenergic receptor inducing internalization; Am2.2-beta2AR cells, FAP receptor internalization, flow cytometry; reference of the scale not given here; response, % (concentration not given with the values); actives 0.43% (n = 340,000);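 active means response above a set limit, near 3 SD of response in nonfluorescent compounds, cut at about 42% in these data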;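 further: stock transfer was 100 nL into about 11 µL; a reference agonist was the positive control; negative values mostly stem from fluorescent compounds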
Target sequence (P07550 whole entry, looked up): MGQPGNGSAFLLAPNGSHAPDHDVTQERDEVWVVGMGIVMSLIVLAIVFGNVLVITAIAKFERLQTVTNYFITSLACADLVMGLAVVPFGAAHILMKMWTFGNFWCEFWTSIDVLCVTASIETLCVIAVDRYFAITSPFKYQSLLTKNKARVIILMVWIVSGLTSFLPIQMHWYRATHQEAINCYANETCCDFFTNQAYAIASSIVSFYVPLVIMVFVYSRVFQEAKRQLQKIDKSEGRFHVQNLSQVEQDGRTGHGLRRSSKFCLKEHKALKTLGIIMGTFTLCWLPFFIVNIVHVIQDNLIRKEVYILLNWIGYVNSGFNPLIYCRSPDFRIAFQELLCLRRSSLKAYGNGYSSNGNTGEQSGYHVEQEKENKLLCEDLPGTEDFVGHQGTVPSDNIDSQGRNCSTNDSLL
RanGTP-Impb inh: disruptors of Ran-importin-beta complex formation – biochemical, FRET, CFP-Ran, YFP-importin-beta, homogeneous, primary screen; cell-free CFP-Ran/YFP-importin-beta FRET ratio; inhibition, % (no concentration beside the values); actives 1.1% (n = 300,000);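 active means most replicates above 15%; inconclusive means exactly half above 15%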;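 further: 0% = DMSO wells and 100% = Ran loaded with GDP instead of GTP; wells of about 40 µL received 100 nL stock; the first replicate is given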
Beta apoptosis: blocks beta cell apoptosis; AID 435005; actives 0.8% (n = 300,000); INS-1E cytokine-induced death, ATP luminescence, 48 h; percent of positive-control rescue, neutral wells zero; protection from apoptosis, % (test concentration not listed);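 active means all replicates at 75% or more, or half of them and the mean; inconclusive means half reach 75% but not the mean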;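 further: 0% = cytokine-treated negative control wells and 100% = positive control rescue; higher means more ATP so stronger rescue from cytokine killing; wells of about 40 µL received 100 nL stock; the first replicate is given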
Numbers without * were called inactive; ? = inconclusive; nt = no result given.

SMILES	Calb FLC	UCH37 inh	A1 inh	T cruzi repl	LANA-H2B inh	B2AR ag	RanGTP-Impb inh	Beta apoptosis
COc1ccc(NC(=O)/C=C/C(=O)O)cc1Cl	6	3.1	-0.7	-7	3.7	-1	5.0	-3
O=C(Cc1ccc2cccnc2c1)c1ccc(O)cc1O	11	6.6	-2.0	-13	-0.1	-13	3.2	-3
COc1ccc(CN(C)C(C)C(=O)Nc2ccc(S(=O)(=O)N3CCOCC3)cc2)c(OC)c1 (stereo not given)	-20	0.0	0.6	14	10	11	-1.1	-3
COc1cc2c(cc1OC)CN(C(=O)c1ccc(S(=O)(=O)N3CCCCC3)cc1)CC2	17	-0.2	1.2	7	0.9	-2	?	0
Nc1c(N(Cc2ccco2)C(=O)COc2ccccc2F)c(=O)[nH]c(=O)n1Cc1ccccc1	nt	0.7	2.2	nt	1.0	-5	nt	-2
CCCCn1cnc2c(cnn2-c2ccc(Cl)cc2)c1=O	21	0.6	0.7	17	-4.1	-2	-3.3	-6
CCn1c(SC)nnc1-c1ccc(S(=O)(=O)N2CCCCC2)cc1	21	0.9	0.2	-3	0.5	2	?	-1
CN1CCC(=NNC(=O)c2cc(-c3ccc(Cl)cc3)n[nH]2)CC1	-1	1.6	-1.0	-8	1.5	7	3.7	2
O=C(Nc1cccc(-c2nnc(-c3ccccc3)o2)c1)C1CCCO1 (stereo not given)	3	2.4	-1.1	6	-4.3	-14	1.4	-2
N#CC1=C(SCC(=O)c2ccc(Br)cc2)NC2=C(C(=O)CCC2)C1c1ccco1 (stereo not given)	nt	0.9	1.3	nt	-6.9	-3	nt	nt
CCN1CCCC1CNC(=O)c1ccc2c(c1)NC(=O)/C(=C\c1ccc(OC)c(OC)c1)S2 (stereo not given)	19	9.5	-0.6	34	-0.5	12	1.7	-11
COc1cccc(C(=O)Nc2nnc(S(=O)(=O)N3CCOCC3)s2)c1	-4	9.0	0.1	-1	-2.4	-3	0.8	-2
OCC1(CCCc2ccccc2)CCN(C2CCSCC2)CC1	-39	-0.5	-0.1	1	-0.9	7	-1.7	-1
Cc1c(C(=O)N2CC(C)OC(C)C2)sc2nc(-c3ccccc3)cn12 (stereo not given)	?	-0.4	-0.5	-3	-2.9	nt	-8.5	-7
CCC(=O)Nc1ccc(C(=O)NCc2ccccn2)cc1	-14	-0.3	0.3	-4	-0.7	0	-1.5	-3
O=C1COc2ccc(S(=O)(=O)CCC(=O)N3CCN(c4cccc(Cl)c4)CC3)cc2N1	4	1.8	-0.5	16	2.1	16	-4.0	2
O=C(CN(c1ccc(F)cc1)S(=O)(=O)c1ccc2c(c1)OCCO2)NCc1ccccn1	6	0.2	0.6	1	-0.1	-7	2.7	-7
Cc1cc2ccccc2nc1SCC(=O)NC1CCCCC1	-4	-0.9	0.6	7	2.7	-9	0.1	nt
CC1CCCCN1S(=O)(=O)c1ccc(S(=O)(=O)NCCc2ccncc2)cc1 (stereo not given)	-1	1.0	-0.1	21	-0.3	-6	5.4	8
Cc1ccc(NC(=O)COc2ccccc2C(=O)Nc2ccccc2)cc1Cl	-12	0.7	0.6	25	8.4	-1	-0.5	5
CCCCOCCCNS(=O)(=O)c1ccccc1	-2	1.4	-0.3	6	-0.6	0	5.4	3
CCS(=O)(=O)n1nc(-c2ccc(Cl)cc2)nc1SC	-47	0.4	-2.4	-11	1.3	-3	-2.0	-5
CC(C)N1CCN(Cc2ccc(C#CCCO)cc2)CC1CCO (stereo not given)	-5	-5.6	-0.4	23	-0.7	4	2.9	-3
CCc1ccccc1N(CC)C(=O)c1cn(C)c(=O)c2cc(OC)c(OC)cc12	-4	2.6	0.1	-7	0.1	1	1.5	-1

Compound profiles (already shown).
CC1CCCCN1S(=O)(=O)c1ccc(S(=O)(=O)NCCc2ccncc2)cc1 (stereo not given) in the list: Calb FLC: -1; UCH37 inh: 1.0; A1 inh: -0.1; T cruzi repl: 21; LANA-H2B inh: -0.3; B2AR ag: -6; RanGTP-Impb inh: 5.4; Beta apoptosis: 8
CCCCOCCCNS(=O)(=O)c1ccccc1 in the list: Calb FLC: -2; UCH37 inh: 1.4; A1 inh: -0.3; T cruzi repl: 6; LANA-H2B inh: -0.6; B2AR ag: 0; RanGTP-Impb inh: 5.4; Beta apoptosis: 3

The results go on.
SMILES	Calb FLC	UCH37 inh	A1 inh	T cruzi repl	LANA-H2B inh	B2AR ag	RanGTP-Impb inh	Beta apoptosis
O=C(Cc1ccsc1)NCC(c1ccco1)N1CCCCC1 (stereo not given)	-6	-5.2	0.2	6	3.3	-6	2.4	-2
O=C(CNC(=O)c1ccc2c(c1)OCCO2)N/N=C/c1ccc(Cl)cc1	-11	nt	1.1	7	3.4	-11	2.9	-3
CCCN1Cc2cccc(C(=O)NC(CC(=O)OCC)c3ccc(OC(C)C)cc3)c2C1=O (stereo not given)	13	-0.6	0.0	24	-1.6	-9	3.2	-1
CC(NC(=O)Cn1nc(-c2ccccc2)c2ccccc2c1=O)c1ccccc1 (stereo not given)	-2	0.1	0.9	2	-1.8	-8	-1.3	2
COc1ccc(-n2cnnc2)cc1	-4	4.8	0.3	-3	-3.2	0	-0.8	1
CC(C)OCCCNc1nc2c(-c3ccccc3)nnn2c2ccccc12	-1	-275	0.1	-10	2.5	nt	5.3	3
COc1ccccc1CNC(=O)C(=O)NCC1OCCCN1S(=O)(=O)c1ccc(F)cc1C (stereo not given)	-4	-0.3	-0.3	3	0.6	3	0.5	5
CC(=O)C1=C(C)NC(=S)NC1c1cc([N+](=O)[O-])ccc1O (stereo not given)	10	5.4	0.0	6	-5.7	-3	2.1	-5
COc1ccc(S(=O)(=O)N(c2onc(C)c2Cl)S(=O)(=O)c2ccc(OC)c(OC)c2)cc1OC	-11	0.7	0.2	-6	-0.6	2	-2.6	-13
O=C(Cc1c[nH]c2ccccc12)N1CCN(c2ccccc2)CC1	-3	1.8	-0.1	-7	2.2	3	-0.9	-1
Cc1cc([N+](=O)[O-])ccc1NC(=O)CCC(=O)N1CCCCCC1	-1	3.4	-0.4	-3	2.8	5	0.1	0
c1ccc(Cn2nnnc2C(c2cccs2)N2CCSCC2)cc1 (stereo not given)	?	0.0	0.0	3	-7.5	-3	3.7	-1
COc1ccc(/C=N\N=C2/SC(CC(=O)O)C(=O)N2c2ccc(O)cc2)cc1OC (stereo not given)	3	nt	0.5	-15	5.9	9	3.6	-4
N#Cc1ccccc1S(=O)(=O)N1CCN(C(=O)CN2CCCSc3ccccc32)CC1	nt	-1.4	-1.2	nt	5.2	5	nt	7
CCc1ccc(-c2cc(C)no2)cc1S(=O)(=O)N1CCN(c2cc(C)ccc2C)CC1	-2	0.8	-1.0	45	4.5	-1	2.3	7
CCCCn1c(N)c(N(CC)C(=O)C2CCC2)c(=O)[nH]c1=O	nt	0.7	0.3	nt	-4.2	-6	nt	-9
CCc1ccc2c(c1)C(c1ccc([N+](=O)[O-])cc1)=NNC(c1ccc(Br)cc1)=N2	1	6.5	-0.9	14	0.5	-7	?	6
Cn1c(NCc2cccnc2)nc2c1c(=O)n(Cc1ccccc1F)c(=O)n2C	-4	-0.5	-0.9	-22	-0.1	-11	2.6	2
Cc1cc(C)cc(-n2ncc3c2CCCC3NC(=O)c2cc(C)oc2C)c1 (stereo not given)	8	-0.8	-0.3	28	2.7	15	-2.2	10
Cc1cc(C(=O)COc2ccc(-c3nnco3)cc2)c(C)n1Cc1ccccc1	1	0.7	-0.4	11	2.2	-7	-1.6	12
Cc1ccc(NC(=O)CSCC(=O)NCCc2ccccc2)c(C)c1	nt	1.7	0.8	nt	0.7	-6	nt	0
O=C(Nc1nccs1)C1CCN(S(=O)(=O)c2ccc3c(c2)OCCCO3)CC1	-14	4.4	0.0	3	0.9	5	1.8	4
Cc1oc2cc(O)ccc2c(=O)c1N1C(=O)c2ccccc2C1=O	1	-1.7	-0.6	-22	-0.1	-2	5.1	-5
O=C(C[C@@H]1C/C=C\C[C@@H](Cc2ccc(F)cc2)C(=O)OCCNC1=O)NCCO	nt	3.1	-0.2	nt	1.4	1	nt	-4

In another format: results already given.
smiles,Calb FLC,UCH37 inh,A1 inh,T cruzi repl,LANA-H2B inh,B2AR ag,RanGTP-Impb inh,Beta apoptosis
Cn1c(NCc2cccnc2)nc2c1c(=O)n(Cc1ccccc1F)c(=O)n2C,-4,-0.5,-0.9,-22,-0.1,-11,2.6,2
Cc1cc(C)cc(-n2ncc3c2CCCC3NC(=O)c2cc(C)oc2C)c1 (stereo not given),8,-0.8,-0.3,28,2.7,15,-2.2,10
Cc1cc(C(=O)COc2ccc(-c3nnco3)cc2)c(C)n1Cc1ccccc1,1,0.7,-0.4,11,2.2,-7,-1.6,12
Cc1ccc(NC(=O)CSCC(=O)NCCc2ccccc2)c(C)c1,nt,1.7,0.8,nt,0.7,-6,nt,0
O=C(Nc1nccs1)C1CCN(S(=O)(=O)c2ccc3c(c2)OCCCO3)CC1,-14,4.4,0.0,3,0.9,5,1.8,4

The listing continues:
SMILES	Calb FLC	UCH37 inh	A1 inh	T cruzi repl	LANA-H2B inh	B2AR ag	RanGTP-Impb inh	Beta apoptosis
COc1ccc(C(=O)Nn2c(C)nc3ccccc3c2=O)cc1[N+](=O)[O-]	-7	3.3	1.6	4	-0.9	-3	1.6	-5
CN1CCN(C(=O)C2=C[C@H](c3coc4ccccc4c3=O)C[C@H](OCc3ccc(CO)cc3)O2)CC1	-10	1.0	1.0	-2	-1.0	-8	?	-7
O=C(CSc1n[nH]c(-c2cccs2)n1)NCCc1ccccc1	12	3.0	0.0	-3	-0.5	-2	0.0	-7
Cc1ccc(C(=O)NC2CCN(C(=O)Nc3ccc(F)cc3)CC2)cc1	-6	3.8	1.4	-2	1.5	3	3.6	1
Cc1ccc(NC(=O)COC(=O)c2cccc(N3C(=O)c4ccccc4C3=O)c2)cc1	7	5.3	0.0	-4	-2.2	-9	1.7	0
COC(=O)CSc1nnc(C)c(=O)[nH]1	-2	-1.5	1.0	-1	0.8	4	3.4	0
Cc1ccc(C(=O)N2CC(=O)Nc3ccc(F)cc3C2c2ccc(F)cc2)cc1 (stereo not given)	9	5.1	1.1	8	-2.4	-7	-1.2	5
O=C(NCCc1ccccc1)C1CCC(CNS(=O)(=O)c2cccc3cccnc23)CC1 (stereo not given)	-3	0.8	0.0	2	1.4	-10	-3.9	-4
Cc1ccc(SCC(=O)NC(=O)NC(C)C)c(C)c1	-7	0.9	-0.3	-2	0.9	-7	-3.1	-16
CCCNS(=O)(=O)c1ccc(OCC(=O)NCCCOC)cc1	-9	2.3	0.6	-8	2.2	6	-3.0	-13
O=C(Nc1cccc(C(=O)O)c1)/C(=C\c1ccc2c(c1)OCO2)NC(=O)c1ccc(Br)cc1	14	8.1	0.4	-1	3.9	-2	0.9	-9
O=C(Nc1cccc2c1[nH]c1ccccc12)C(F)(F)F	9	0.8	1.3	-17	-0.9	9	5.1	4
COCCc1ncc(CN2CCCCC2C(=O)Nc2ccc(Oc3ccccc3)nc2)cn1 (stereo not given)	0	1.4	-0.4	0	-1.8	-1	0.6	3
CCOC(=O)C1CCCN(Cc2c(C(=O)N3CCCCC3)nc3c(C)cccn23)C1 (stereo not given)	-29	2.2	0.7	9	-1.2	-9	0.7	-4
